RanGTP-Imp inh – inhibitors of RanGTP-importin-beta interaction, primary screen, biochemical, FRET, CFP-Ran, YFP-importin-beta, homogeneous | inhibition, % (test concentration not listed) | cell-free CFP-Ran/YFP-importin-beta FRET ratio | 300,000 compounds, 1.1% hits;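 active means most replicates above 15%; inconclusive means exactly half above 15%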;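 further: 0% = DMSO wells and 100% = Ran loaded with GDP instead of GTP; wells of about 40 µL received 100 nL stock; the first replicate is given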
T cruzi repl – T. cruzi replication inhibition; T. cruzi beta-gal in NIH3T3, luminescence, 90 h; inhibition, % (no concentration beside the values); 300,000 compounds, 1.4% hits; AID 1885;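 active means mean inhibition across valid replicates above about 55%, limit read from the data; inconclusive means mean below that limit but half or more replicates reach it; inactive means mean below it, under half of replicates reach it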;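 further: signal also drops with host cell toxicity which is not excluded here; 0% = plate median of DMSO wells and 100% = zero luminescence signal; higher percent means less beta-gal luminescence so fewer parasites; stock transfer was 50 nL into about 50 µL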
Calb FLC – C. albicans growth modulation with fluconazole. C. albicans CaCi-2 (fluconazole-resistant clinical isolate) + fluconazole, Alamar Blue growth, 48 h. growth inhibition, % (concentration not given with the values). 300,000 compounds, 0.57% hits. AID 1979;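 active means most replicates above 75%; inconclusive means exactly half above 75%; inactive means most below 75%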;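 further: all wells also contain fluconazole at 8 µg/ml as a sub-toxic cotreatment; 0% = median of DMSO wells and 100% = median of geldanamycin control wells; wells of about 8 µL received 7.5 nL stock; the first replicate is given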
A1 inh – inhibitors of the anti-apoptotic protein A1, read as caspase activation | MEF A1-2A-BIM cells, Caspase-Glo 3/7 luminescence, 3 h; percent of clofoctol response, vehicle zero | caspase activation, % (no concentration beside the values) | 330,000 compounds, 0.066% hits | AID 2462;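 active means over half of replicate activation scores above 10%, or exactly half above 10 with the replicate mean above 10; inconclusive means replicate mean below 10 yet half the replicates above 10; inactive means over half of replicates below 10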;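 further: wells of about 30 µL received 50 nL stock; many hits fall short of the cut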
Vif TR-FRET – inhibitors of Vif binding to APOBEC3G peptide, primary screen, biochemical, TR-FRET, GST-Vif 1-94, biotin-A3G peptide, dose response retest (AID 1117319). TR-FRET GST-Vif / biotin-A3G peptide binding; higher % means a stronger effect; test concentration not given here; strong numbers were not always called active. inhibition, %; hits with a dose series show IC50 in µM. 260,000 compounds, 0.57% hits;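 active means above the screen mean plus three standard deviations and confirmed in dose response; inconclusive means results disagree or hit not tested in dose response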;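 further: Vif residues 1-94 fused to GST binding biotinylated APOBEC3G peptide 110-148; 0% = full assay without inhibitor and 100% = GST in place of GST-Vif; retest series ran down from 100 µM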
Beta cell apopt – beta cell apoptosis inhibition | INS-1E cytokine-induced death, ATP luminescence, 48 h; percent of positive-control rescue, neutral wells zero | protection from apoptosis, % (concentration not given with the values) | 300,000 compounds, 0.8% hits | AID 435005;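 active means all replicates at 75% or more, or half of them and the mean; inconclusive means half reach 75% but not the mean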;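 further: 0% = cytokine-treated negative control wells and 100% = positive control rescue; higher means more ATP so stronger rescue from cytokine killing; wells of about 40 µL received 100 nL stock; the first replicate is given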
MLL AF4-AF9 inh – inhibitors of human MLL-AF4/AF9 interaction | P42568 | AlphaScreen, biotin-AF4 peptide binding to FLAG-AF9 | inhibition, % at 10 µM | 350,000 compounds, 0.47% hits | AID 651704;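 active means every replicate reaching a set inhibition limit, whatever the replicate mean, cut at about 25% in these data; inconclusive means mean inhibition reaches that limit but some replicates miss it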;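 further: 0% = plate neutral control median and 100% = total signal loss; the record names both 10 and 1 µM as test concentration; the first replicate is given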
Target sequence (P42568 whole entry, looked up): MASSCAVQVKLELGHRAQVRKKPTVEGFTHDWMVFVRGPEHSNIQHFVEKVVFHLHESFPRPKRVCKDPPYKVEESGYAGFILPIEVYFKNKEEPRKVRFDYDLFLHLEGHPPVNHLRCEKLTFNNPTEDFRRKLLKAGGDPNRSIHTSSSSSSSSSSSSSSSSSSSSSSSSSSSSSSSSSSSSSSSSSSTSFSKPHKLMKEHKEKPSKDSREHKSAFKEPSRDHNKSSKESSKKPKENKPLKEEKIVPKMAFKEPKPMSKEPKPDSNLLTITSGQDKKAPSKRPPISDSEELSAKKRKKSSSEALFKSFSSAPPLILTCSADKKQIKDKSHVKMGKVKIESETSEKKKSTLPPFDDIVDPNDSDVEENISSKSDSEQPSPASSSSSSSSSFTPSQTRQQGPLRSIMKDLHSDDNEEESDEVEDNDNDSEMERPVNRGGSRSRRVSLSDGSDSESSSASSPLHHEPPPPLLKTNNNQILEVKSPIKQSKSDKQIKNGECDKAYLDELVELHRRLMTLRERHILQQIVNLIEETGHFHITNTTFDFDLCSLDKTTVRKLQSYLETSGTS
LANA-H2B inh – blocks KSHV LANA binding to histone H2A/H2B | cell-free LANA-H2A/H2B peptide, fluorescence polarization | inhibition, % (no concentration beside the values) | 320,000 compounds, 0.6% hits; in the data active means inhibition mostly above about 10%, no sharp cut-off; inactive means mostly below about 6.7%;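 further: stock transfer was 7.5 nL into about 10 µL; 0% = median of vehicle wells and 100% = median of positive control wells; one replicate is shown; the record names a cut of 25% in any replicate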
* hit, by the source's call; ? = inconclusive; · = no result given; & = joins results of further samples.

SMILES	RanGTP-Imp inh	T cruzi repl	Calb FLC	A1 inh	Vif TR-FRET	Beta cell apopt	MLL AF4-AF9 inh	LANA-H2B inh
Cc1cccc(NC(=O)NCCN2C(=O)C3C4C=CC(C4)C3C2=O)c1 (stereo not given)	-2.3	-9	-3	-0.9	1%	-3	-1.2	-8.0
O=C(NCSc1ccncn1)c1ccccc1	?	-13	6	0.5	5%	-9	·	-1.4
O=C(CCn1c(=O)sc2ccccc21)NC1CCCCC1	2.6	2	-2	1.0	·	-6	2.0	12
COc1ccc(CCNC(=O)c2ccc3c(SCC(=O)O)c4c(nc3c2)CCCC4)cc1OC	-2.7	-7	11	1.4	19%	-14	-0.7	0.3
Cc1cc(C)cc(OCC(O)Cn2nc(C)cc2C)c1 (stereo not given)	4.0	-15	-2	0.6	2%	2	-2.4	3.1
O=C(CSc1nnc2c(Cl)cc(Cl)cn12)NC1CCS(=O)(=O)C1 (stereo not given)	-1.0	4	0	0.8	16%	-11	·	-3.0
COc1ccc(CCNC(=O)c2cc(-c3cccs3)on2)cc1OC	-4.6	9	52	0.5	-6%	35	-7.3	-3.6
CN1CCN(CCCCOc2ccc(F)cc2)CC1	2.6	52	0	-0.2	3%	-3	·	5.0
O=C(CSc1nc2ccccc2c(=O)n1-c1ccc(F)cc1)NC1CC1	·	·	·	-0.1	·	2	1.1	0.0
O=C(O)c1ccccc1/C=N/NC(=O)C1CCCCC1	2.3	10	-1	0.0	12%	1	1.6	14
Cc1ccccc1-c1nc2cc(N)ccc2o1	0.9	-11	-22	-5.2	-8%	-4	-78	5.8
CCOC(=O)c1ccc(NS(=O)(=O)c2c(C)[nH]c(C)c2C(=O)N2CCCCC2)cc1	0.1	9	1	0.4	-6%	·	5.6	-1.8
CCN(CC)CCCN1C(=O)C(O)=C(C(=O)c2cc3ccccc3o2)C1c1ccccn1 (stereo not given)	·	·	·	1.5	-3%	-3	·	0.8
Cc1cccc(/C=C/C(=O)c2ccc([N+](=O)[O-])o2)c1	?	41	7	3.1	·	117*	-0.4	-2.9
CC1CCC(NC(=O)c2ccc(NC(=O)c3ccc(=O)[nH]c3)cc2)CC1 (stereo not given)	2.7	-11	-3	0.5	-8%	·	·	-1.6
COc1ccccc1N1CCN(/N=C/c2cc(OC)c(OC)c(OC)c2)CC1	0.1	13	-11	0.9	3%	4	·	-0.1
CC(C)=CC(=O)Nc1ccc2c(c1)OCO2	-1.8	9	5	-6.5	10%	5	·	-0.5
CC(C)c1ccc(C(C(=O)NC2CCCC2)N(C(=O)c2csnn2)C2CC2)cc1 (stereo not given)	1.8	16	4	0.3	?	4	1.5	-2.1
CCCCn1c(N)c(N(CCOC)C(=O)c2ccc3c(c2)C(=O)N(c2ccccc2Cl)C3=O)c(=O)[nH]c1=O	·	·	·	-0.1	·	6	-0.4	3.9
O=C(COc1ccc(F)cc1Br)NCc1ccccn1	?	-15	-8	-0.7	20%	-5	·	-2.2
CCCCCCCC/C=C\CCCCCCCC(=O)NCCO	·	·	·	-0.2	·	-2	-14	5.7
COc1cccc(C(=O)/C=C/Nc2ccc(NC(C)=O)cc2)c1	-4.8	-10	-13	-6.6	-7%	-2	6.0	2.1
O=C(Nc1ccc(Cl)cc1Cl)C1CCCO1 (stereo not given)	-3.2	-3	-4	-0.4	·	-5	-5.0	-1.0
CSc1nc2nc(C)c(C/C=C/c3ccccc3)c(=O)n2[nH]1	1.3	-5	4	0.2	-2%	1	-1.9	-1.3
CC(C)CCNc1nnnc2c1sc1nc(N3CCOCC3)c3c(c12)CC(C)(C)SC3	6.0	1	17	0.0	6%	9	·	-0.6
Cn1c(CNC(=O)c2ccco2)nnc1SCC(=O)Nc1ccccc1Cl	3.2	0	-1	-0.4	-1%	-2	2.2	·
Cc1ccc(N2CC3=C(C2=O)C(c2ccccc2)NC(=O)N3C)cc1 (stereo not given)	?	-3	-3	-0.2	19%	0	·	-5.5
O=C(COC(=O)c1c[nH]c2ccccc12)Nc1cccc(F)c1	·	·	·	1.8	-28%	-7	0.3	1.9
Cc1cccc(OCCOCCSc2ncccn2)c1	1.1	-6	-3	0.1	-1%	-2	·	1.6
N#CCCN1CCN(C(CNS(=O)(=O)c2ccc(Cl)cc2)c2ccccc2)CC1 (stereo not given)	3.6	14	·	0.1	20%	-7	·	-0.8
COc1ccc(CCNc2cc(C)nc3c(-c4ccc(Cl)cc4)c(C)nn23)cc1OC	-3.4	27	10	-0.5	-7%	6	·	3.0
COc1cc(-c2nc3ccccc3c(=O)n2N)cc(OC)c1OC	4.8	-19	14	0.6	-7%	-6	-1.4	3.0
CCCCNS(=O)(=O)c1ccc(NC(=O)Cc2ccccc2[N+](=O)[O-])cc1	2.5	3	-18	-0.3	?	0	-4.9	-10
COCCCN1C(=O)C(O)=C(C(=O)c2ccco2)C1c1ccc(Br)cc1 (stereo not given)	0.8	-8	7	-0.1	-5%&-4%	-6	·	5.1
Cc1cc(C)nc(-n2nc(C)cc2NC(=O)COC(=O)CCC(=O)c2cccs2)n1	-8.9	5	-1	1.0	-2%	1	·	3.6
CCc1cccc(CC)c1NC(=O)c1ccccc1CCc1ccccc1	-0.1	11	-4	1.2	14%	1	·	-1.9
Cc1nc(C(=O)NCCO)cc2c1[nH]c1ccccc12	-0.5	-11	3	1.6	-1%	6	-3.5	0.8
O=C(COC(=O)c1cccnc1Nc1ccccc1F)NCc1ccc2c(c1)OCO2	-2.3	-10	-15	-0.2	-2%	7	·	-0.8
CCN(CC(=O)Nc1c(F)cccc1F)C(=O)/C=C/c1ccc(OCC#N)c(OC)c1	·	2	2	0.0	10%	-2	-6.7	-1.2
O=C(COC(=O)c1ccc[nH]c1=O)Nc1ccc2c(c1)OC(F)(F)O2	6.1	7	1	0.5	?	-1	-9.1	-2.3
COc1ccc(-n2c(C)c(C)c3c(NCCO)ncnc32)cc1	1.2	3	2	0.2	-3%	-9	·	2.6
CC(C)(C)CN1CCN(CC#Cc2ccccc2)CC1CCO (stereo not given)	7.5	-12	-4	-1.0	3%	-2	-2.4	-3.9
COc1ccc(OCCCC(=O)OC(C)C(=O)Nc2ccc(NC(C)=O)cc2)cc1 (stereo not given)	-1.4	-5	13	1.1	·	-8	-2.1	0.3
CC(C)(C)NC(=O)c1cnn(-c2ccccc2)c1NC(=O)c1ccccc1	-4.4	3	-3	0.0	0%	·	·	-2.9
Cc1cccc(-n2c(-c3ccccc3)c[nH]c2=S)c1C	1.7	-3	-3	-0.9	-6%	2	0.6	4.5
S=c1[nH]nc(-c2cccnc2)n1-c1ccc2c(c1)OCCO2	-0.3	-12	-19	0.8	2%	6	-2.5	1.5
C1CCc2c(nc3nnnn3c2NC2CCCC2)C1	5.7	-1	0	-1.1	-1%	6	·	-2.9
Cc1[nH]c2c(ccc3ccccc32)c1C1C(CCN)C1(C)C (stereo not given)	-21	65*	7	-0.5	-2%	?	·	-3.0
O=C(Nc1ccccc1)c1c(F)cccc1F	-0.8	-5	-20	0.0	1%	1	-16	6.7
Cc1nn(-c2cccc(C(=O)O)c2)c(C)c1[N+](=O)[O-]	0.1	-3	-2	-0.1	-4%	-6	-1.7	1.3
O=C(c1ccco1)N1CCN(C(=O)C2Cc3ccccc3CN2S(=O)(=O)c2ccc(F)cc2)CC1 (stereo not given)	1.0	-15	6	-0.1	-5%	3	·	1.9
O=C(CN1C(=O)c2cccc3cccc1c23)N1CCc2ccccc2C1	3.2	19	-1	-0.7	0%	1	·	6.6
COc1ccccc1N(CC(=O)N/N=C/c1ccc(C(=O)O)cc1)S(=O)(=O)c1ccc(C)cc1	-0.5	4	0	0.4	·	-7	-13	8.0
COc1ccc(/C=C/C(=O)NC(=S)Nc2ccccn2)cc1	4.8	-18	15	-0.5	56%	2	-1.4	2.7
COc1cccc(C2NC(=O)CCC2[N+](=O)[O-])c1 (stereo not given)	-0.1	-5	4	0.1	-2%	-7	-0.9	3.7
C[C@H]1CN([C@@H](C)CO)C(=O)c2cc(NC(=O)c3ccncc3)ccc2O[C@H]1CN(C)Cc1ccc(C(=O)O)cc1	·	·	·	0.0	·	11	-0.1&1.2	0.4
CC(C)CC(NS(=O)(=O)c1ccccc1)C(=O)O (stereo not given)	?	-5	-8	0.7	21%	-4	·	-3.0
CN(Cc1ccccc1)C(=O)c1[nH]cnc1C(=O)NCC(=O)OC(C)(C)C	3.7	-10	-7	-0.2	·	1	0.8	2.1
NC[C@H]1O[C@H](O[C@H]2[C@H](O)[C@@H](O[C@H]3O[C@H](CO)[C@@H](O)[C@H](N)[C@H]3O)[C@H](N)C[C@@H]2N)[C@H](N)C[C@@H]1O	2.4	-17	·	·	·	·	0.6	-21
CC(NC(=S)NC1CCC(C(C)(C)C)CC1)c1ccccc1 (stereo not given)	-0.3	?	-26	-0.7	·	28	-0.6	-7.4

Screening results from PubChem.
